HPGD block – blocks human HPGD enzyme activity | purified HPGD, NADH fluorescence kinetic, PGE2 substrate | hit rate 4.3% among 150,000 | Potency, µM, without a hit: top-dose activity change, negative = inhibition, hits mostly inhibitors | P15428; active = well fitted inhibition curve with a large enough effect (not every such curve was filed as active); inconclusive = small, poorly fitted or top-dose-only effect, or another doubt; inactive = no such curve, though single readings can be large or run the other way;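 note: top concentration of the series not given in the record; plate controls included wells without enzyme; inactives centre near -10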
Target sequence (P15428 whole entry, looked up): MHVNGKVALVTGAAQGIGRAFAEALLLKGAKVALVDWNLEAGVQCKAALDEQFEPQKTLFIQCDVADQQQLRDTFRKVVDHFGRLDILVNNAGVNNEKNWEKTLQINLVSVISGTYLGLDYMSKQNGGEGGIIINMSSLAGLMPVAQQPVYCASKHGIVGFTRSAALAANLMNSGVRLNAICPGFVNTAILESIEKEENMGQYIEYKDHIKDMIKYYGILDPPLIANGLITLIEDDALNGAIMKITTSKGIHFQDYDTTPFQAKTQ
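20 nM HPGD preincubated 15 min at room temperature with compound in 50 mM Tris-HCl pH 8, 0.01% Tween 20. Started with 1 mM NAD+ and 30 uM prostaglandin E2; NADH fluorescence (360/450 nm) read 5 times over 30-s intervals, last minus first.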
An asterisk follows results filed as active; u = inconclusive. % is set by controls: 0 for no effect and ±100 for the full control effect; potency is the fitted concentration of half-maximal effect. This is a subset, so the mix of outcomes need not match the whole.

| molecule | HPGD block |
| --- | --- |
| Cc1c(C(=O)NC(Cc2ccccc2)c2nc3ccccc3[nH]2)cccc1[N+](=O)[O-] (configuration not stated) | -11% |
| O=C(NCc1ccco1)c1noc2c1CCCCC2 | -12% |
| Cn1nnnc1SCC(=O)NC(=O)NCc1ccccc1 | -11% |
| CCOC(=O)N1CCC(NC(=O)c2csc3c2CCCC3)CC1 | -6% |
| Cn1c(N)c(C(=O)COC(=O)c2ccnc3ccccc23)c(=O)n(C)c1=O | u |
| CCN(CC)c1ccc2cc(C(=O)NNC(=O)c3ccc(S(=O)(=O)N4CCCCC4)cc3)c(=O)oc2c1 | -26% |
| CC(=O)N1CCN(C(=S)c2ccc(Cl)cc2)CC1 | 25µM* |
| CC(C)c1nc(-c2ccccc2)c(-c2ccccc2)[nH]1 | -16% |
| Cc1cc(C)cc(Nc2cc(=O)n(C3CCCCC3)c(=O)[nH]2)c1 | -5% |
| O=C(CCn1c(=O)c2ccccc2n(CC(=O)NCCC2=CCCCC2)c1=O)NCc1ccco1 | -13% |
| CCOC(=O)c1cnc2ccc(Cl)cc2c1Nc1ccc(S(=O)(=O)Nc2ncccn2)cc1 | -16% |
| CCCCC1=CC2=CC(=O)C(C)(OC(=O)CC)C(=O)C2=CN1CCCCO (configuration not stated) | -6% |
| O=C(CNC(=O)c1ccc(Cl)cc1)OCc1nc2ccccc2s1 | -6% |
| CCOc1ccc(-c2c(C)n([O-])c3c([n+]2=O)CCCC3)cc1 | -23% |
| Cn1cnc([N+](=O)[O-])c1Sc1ccc(Br)cc1 | -6% |
| COc1ccc(C)cc1S(=O)(=O)N(CC(=O)NCc1ccc(Cl)cc1)Cc1ccccc1 | -6% |
| Cn1c(=O)n(Cc2ccccc2F)c2ccccc21 | -9% |
| COc1cc(/C=C/C(=O)OCC(=O)Nc2cc(C(F)(F)F)ccc2N2CCOCC2)ccc1O | -9% |
| CCN(CC)S(=O)(=O)c1cccc(C(=O)Nc2nc3cc4c(cc3s2)OCCO4)c1 | -23% |
| O=C(COC(=O)COc1ccccc1)NC1CCCc2ccccc21 (configuration not stated) | -4% |
| CCc1nc(NCCCn2ccnc2)c2oc3ccccc3c2n1 | -13% |
| CCOC(=O)/C(C#N)=C1\Nc2ccccc2N=C1N(CC(C)C)CC(C)C | u |
| COC(=O)c1c(NS(=O)(=O)c2ccc3ccccc3c2)sc2c1CCCC2 | -18% |
| CSc1c(CC(=O)Nc2ccccc2Cl)n(Cc2ccccc2)c2ccccc12 | -17% |
| Cc1ccc(-c2csc(NC(=O)c3cccs3)n2)cc1 | -13% |
| CN1CCN(c2ncc3nc(CCc4ccccc4)c(=O)n(Cc4ccc(F)cc4)c3n2)CC1 | u |
| CCOc1ccccc1Nc1nc(N)nc(CN(C)C2CCCCC2)n1 | -13% |
| N/C(CC(=O)Nc1cccc(C(F)(F)F)c1)=N/O | -6% |
| CCCNC(=O)CS(=O)Cc1nc(-c2ccc(OC)cc2)oc1C (configuration not stated) | -9% |
| CCOC(=O)CN1C(c2ccccc2O)Nc2ccc(Br)cc2C1c1ccccc1 (configuration not stated) | -3% |
| Cc1ccc(C(=O)N2CCC(C(=O)NCc3cccnc3)CC2)cc1 | -5% |
| COc1ccc(-c2nnc3c4ccccc4c(C)nn23)cc1S(=O)(=O)N1CCN(CCO)CC1 | -20% |
| CCOC(=O)COc1ccc(S(=O)(=O)Nc2ccc3c(c2)OCCO3)cc1 | -9% |
| O=C(CN1CCN(c2ccccc2)CC1)Nc1ccc2c(c1)CCC2 | -1% |
| COC(=O)c1ccccc1NC(=O)c1cc(-c2cccs2)on1 | -22% |
| COc1cc(/C=C/C(=O)c2c(O)cc(C)oc2=O)cc(OC)c1O | -11% |
| O=C(CSc1ccc2nnc(-c3cccc(F)c3)n2n1)NCc1ccco1 | -7% |
| O=C(CSc1ncn[nH]1)NCCC(c1ccccc1)c1ccccc1 | -12% |
| CCOC(=O)C1=C(C)NC(=O)NC1/C=C/c1ccccc1 (configuration not stated) | -1% |
| N#Cc1c2n(c3c(=O)n(Cc4ccccc4Cl)cnc13)CCCCC2 | -17% |
| NS(=O)(=O)c1ccc(NC(=O)c2ccccc2Cl)cc1 | -11% |
| COC(=O)CSc1nc(C)c(C(=O)Nc2ccccc2C)c(-c2ccc(Cl)cc2)c1C#N | u |
| CC(C)c1ccccc1NC(=O)COC(=O)CCN1C(=O)/C(=C\C=C\c2ccccc2)SC1=S | -14% |
| COc1ccccc1-c1n[nH]c2c1[C@H](C)CC[C@H]2C(C)C | -18% |
| N#Cc1nc(COc2ccc(Cl)cc2)oc1N1CCN(Cc2ccccc2)CC1 | -17% |
| Cc1ccccc1/C=C/c1nc2ccccc2c(=O)n1CCc1ccccc1 | -22% |
| CCNC(=O)CC1SC(=Nc2cccc(Cl)c2C)N(C)C1=O (configuration not stated) | -14% |
| Cc1cccc(C)c1NC(=O)CSc1nnc(Cc2ccccc2)o1 | -13% |
| O=C(c1ccc2c(c1)OCO2)[C@@H]1[C@@H]2C(=O)N(C3CCCCC3)C(=O)[C@@H]2C2c3ccccc3C=CN21 (some centres not stated) | -14% |
| O=C(/C=C/c1ccc([N+](=O)[O-])cc1)NCC1CCCO1 (configuration not stated) | u |
| O=C(NC1CCCCC1)c1ccc(Cc2nc3ccccc3[nH]2)cc1 | -4% |
| CC(C)(CNS(=O)(=O)c1ccc(F)cc1)CNS(=O)(=O)c1ccc(F)cc1 | -8% |
| COc1ccc(OC)c(Nc2nc(-c3sc(NC(=O)CC(C)C)nc3C)cs2)c1 | u |
| CCOC(=O)c1c(C)[nH]c(C(=O)OCCOc2ccc(Cl)cc2)c1C | -5% |
| O=C1NN(c2ccc(Cl)c(Cl)c2)C(=O)/C1=C/c1cccc(OC(=O)c2cccs2)c1 | 10µM* |
| CC(C)(C)S(=O)(=O)c1ccc2nc3c(n2c1)CCCC3 | u |

Filtered by structure: the compounds so far containing bromine (2)
| molecule | HPGD block |
| --- | --- |
| Cn1cnc([N+](=O)[O-])c1Sc1ccc(Br)cc1 | -6% |
| CCOC(=O)CN1C(c2ccccc2O)Nc2ccc(Br)cc2C1c1ccccc1 (configuration not stated) | -3% |

Remaining list, next part
| molecule | HPGD block |
| --- | --- |
| CC(C)n1c(=O)c2c(O)cc(=O)oc2c2ccccc21 | -13% |
| Cc1ccccc1Cn1nc(C)c(NC(=O)c2noc3c2CCc2ccccc2-3)c1C | -10% |
| Nc1cc(Cl)nc(N/N=C/c2c(O)ccc3ccccc23)n1 | -9% |
| CCCCOC(=O)CSc1nc(N)c(C#N)c(-c2ccc(OC)cc2)c1C#N | -28% |
| Clc1ccc(-c2ccnc(Oc3cc(Cl)ccc3Cl)n2)cc1 | -9% |
| CSc1ccc2nnc(-c3cccc(F)c3)n2n1 | -28% |
| CCCCn1c(=O)c(CCC(=O)OCC(=O)Nc2cccc3ccccc23)nc2ccccc21 | -8% |
| CCc1ccc(-c2cc(C(=O)NCc3ccccn3)c3ccccc3n2)cc1 | u |
| Cc1ccccc1Cn1cc(NC(=O)c2noc3c2CC(C(C)(C)C)CC3)cn1 (configuration not stated) | u |
| CC1CCN(c2nc3ccc(C(=O)N4CCN(Cc5ccc6c(c5)OCO6)CC4)cc3s2)CC1 | 18µM* |
| Cc1ccc(C)n1-c1ccc(C(=O)NC2CCN(Cc3ccccc3)CC2)cc1 | -7% |
| CCn1c(CNC(=O)c2ccccc2)nnc1SCC(=O)N1CCN(c2ccccc2)CC1 | -1% |
| COC(=O)C1=C(N)Oc2cc(C)n(C)c(=O)c2C1c1ccc(Cl)cc1 (configuration not stated) | -3% |
| COc1ccc(-c2cn3cccnc3n2)cc1Br | u |
| O=C(COc1cc(=O)n2c(n1)SCCC2)c1ccccc1 | 16µM* |
| CCOC(=O)COc1ccc(S(=O)(=O)N2CCc3ccccc3C2)cc1 | -3% |
| Cc1c2c([n+]3n1CCC3)CC(C)(C)CC2=O | -12% |
| CCCCn1c(=O)c2ccccc2c2ccccc2c1=O | -22% |
| CC/C(=N\O)c1ccc(OC)c(OC)c1 | -10% |
| Cn1c(=O)c(C(=O)CN2CCCc3ccccc32)c(N)n(Cc2ccccc2)c1=O | u |
| Cc1ccc(OCC(=O)Nc2ccccc2Sc2ccccc2)c([N+](=O)[O-])n1 | -1% |
| Cc1noc(C)c1S(=O)(=O)Nc1ccc(C(=O)NCCc2ccccc2)cc1 | -5% |
| CCC(c1nnnn1Cc1ccco1)N(Cc1cc2cc(OC)ccc2[nH]c1=O)C1CCCCC1 (configuration not stated) | u |
| c1ccc(CN2CCN(c3ncnc4nc[nH]c34)CC2)cc1 | -7% |
| Cc1cc(=O)oc2cc(OCC(=O)OCC(=O)NCc3ccc4c(c3)OCO4)ccc12 | u |
| CC(=O)C1=C(C)Nc2cc(C(F)(F)F)ccc2S1 | u |
| Cn1cccc1C(=O)Nc1nccs1 | 32µM* |
| CCOc1ccc(NC(=O)c2cnsn2)cc1 | -9% |
| O=C(NCCOc1ccc(Cl)cc1)C1CC(=O)N(c2ccc(F)cc2)C1 (configuration not stated) | -12% |
| CCOC(=O)c1cn(CC)c2ccc(Br)cc2c1=O | -14% |
| Cn1c(CN2CCCC2)nc2cc(NC(=O)c3cccs3)ccc21 | -21% |
| Cc1ccc(CC(=O)Nc2nc3ccccc3[nH]2)cc1C | -6% |
| Cc1nc2ccccc2oc1=O | -5% |
| OCCn1c(-c2ccccc2)csc1=Nc1ccccc1 | -27% |
| Cc1ccc(C(=O)Nc2ccc3nc(C)sc3c2)s1 | -15% |
| Cc1ccc2c(nc3s/c(=C/c4cccs4)c(=O)n32)c1C | 28µM* |
| Cn1c(=O)c2[nH]c(COCc3nc4c([nH]3)c(=O)n(C)c(=O)n4C)nc2n(C)c1=O | -5% |
| COc1ccc(N2CCN(C(=O)c3c(C)nn(-c4ccccc4)c3C)CC2)cc1 | -11% |
| O=S(=O)(c1ccc(F)cc1)N1CCN(C(=S)NC2CCCC2)CC1 | 1% |
| O=C(CN(Cc1ccco1)C(=O)CNS(=O)(=O)c1ccccc1)NCc1ccc(F)cc1 | 2% |
| COc1ccc(CSCC(=O)N/N=C/c2ccc(OCC(=O)N3CCCCC3)cc2)cc1 | u |
| Cc1ccc2cc(CCNC(=O)C(C)(C)C)c(=O)[nH]c2c1 | -23% |
| O=C(NC1CCCCC1)N1CCC(c2nc(-c3ccc(S(=O)(=O)N4CCCC4)cc3)no2)CC1 | -2% |
| CCNS(=O)(=O)c1ccc(NC(=O)c2ccc(Cn3cc(Br)cn3)o2)cc1 | -10% |
| O=C(c1ccncc1)N1CCC[C@@]2(CCN(c3ccncc3)C2)C1 | -6% |
| Cc1[nH]c(=O)[nH]c(=O)c1S(=O)(=O)N1CCN(c2ccccc2F)CC1 | -6% |
| O=S(=O)(c1ccccc1)N1CCN(c2cc(-c3ccccc3)nc3ncnn23)CC1 | -11% |
| CCSC1=C(C#N)C2(CCCC2)C(C#N)=C(N)N1 | u |
| CC1CCN(C(=O)CSc2nnc(CN3CCOCC3)n2-c2ccccc2)CC1 | -12% |
| CC(C)Cn1c(=O)c(C(=O)N/N=C/c2cccc(F)c2)c(O)c2ccccc21 | -12% |
| COc1ccc(N2CCN(Cc3nc4ccccc4n3C)CC2)cc1 | -1% |
| Cc1ccc2c(c1)N(CCCC(=O)NCc1cccnc1)C(=O)CO2 | -5% |
| Cc1c(O)c(O)cc2c1oc1c3ccccc3oc(=O)c21 | -27% |
| COc1ccc(N=Cc2nc(-c3ccco3)oc2O)cc1 | -10% |
| NC(=O)C1CCN(C(=O)/C=C/c2ccco2)CC1 | -21% |
| Cc1cccc(N2CCN(C(=O)c3ccc4ncsc4c3)CC2)c1C | -8% |

Next records follow:
| molecule | HPGD block |
| --- | --- |
| O=C(COc1ccc(S(=O)(=O)NCc2ccccc2)cc1)N1CCOCC1 | -20% |
| O=C(CSc1nc2ccccc2o1)N1CCN(c2ccccc2)CC1 | -5% |
| CCc1cc2c(=O)c(Oc3ccccc3)c(C)oc2cc1O | u |
| COc1cccc(-c2nnc(SCC(=O)Nc3ccc(OC)c(OC)c3)n2N)c1 | -11% |
| CC(/C=N/NC(=O)Cc1cccn1C)=C\c1ccccc1 | 0% |
| O=CN[C@@H](Cc1cnc[nH]1)C(=O)O | -6% |
| Cc1ccc(S(=O)(=O)NC(C(=O)OCC(=O)NC2CCS(=O)(=O)C2)C(C)C)cc1 (configuration not stated) | -6% |
| Cc1c(-c2ccc(F)cc2)nc(N)c(C#N)c1-c1ccco1 | -17% |
| CCCCNC(=O)NNC(=O)c1ccc(F)cc1 | -5% |
| O=C(OC(c1ccccc1)c1nccc2ccccc12)c1cc([N+](=O)[O-])cc([N+](=O)[O-])c1 (configuration not stated) | -6% |
| Cc1c(C#N)c2ccccc2n1CC(=O)NCc1ccccc1 | -16% |
| O=C(CC1NC2CCCCC2NC1=O)Nc1cccc(C(F)(F)F)c1 (configuration not stated) | 0% |
| Cc1cc(OC(=O)c2c(C)cc(O)cc2O)cc(O)c1C(=O)O | 16µM* |
| O=C1c2ccccc2C(=O)c2cc(NC(=O)C3CC3)ccc21 | -3% |
| Cc1c(NC(=O)c2cc(-c3ccccc3)on2)c(=O)n(-c2ccccc2)n1C | -5% |
| CN1CCN(c2nc(-c3ccco3)cc(C(F)(F)F)n2)CC1 | -16% |
| CC(=O)N1CC2(C)CN(C(C)=O)CC(C)(C1)C2=O | -12% |
| CC(C)c1nc(=S)c2ccccc2[nH]1 | u |

4 entries already listed, sorted by number of heavy atoms, ascending.
| molecule | HPGD block |
| --- | --- |
| CC(C)c1nc(=S)c2ccccc2[nH]1 | u |
| CC(=O)N1CC2(C)CN(C(C)=O)CC(C)(C1)C2=O | -12% |
| Cc1c(C#N)c2ccccc2n1CC(=O)NCc1ccccc1 | -16% |
| O=C(OC(c1ccccc1)c1nccc2ccccc12)c1cc([N+](=O)[O-])cc([N+](=O)[O-])c1 (configuration not stated) | -6% |
